Mtb MbtI inh: MbtI salicylate synthase inhibition | P9WFX0 | purified MbtI enzyme, fluorescence intensity read-out | inhibition, %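 (about 17 µg/mL by stock and volumes)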 | 100,000 tested, 0.89% active | AID 493033;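 active = above 50% in both replicates, above 80% if mildly self-fluorescent; inactive = the rest, strongly fluorescent compounds included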;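 note: 0% = mean of negative and 100% = mean of positive controls; one replicate is shown; some compounds called inactive have numbers as strong as hits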
Polio RdRp inh: inhibitors of poliovirus RNA polymerase binding and polymerization; poliovirus polymerase elongation, fluorescence polarization; stronger effect = lower value; 150,000 tested, 0.66% active; % elongation, % (compound at 16.7 µg/mL); in the data active = % elongation below about 90%; note: some results filed as inactive read as strong as hits
Target sequence (P03300 1749-2209 limits assumed): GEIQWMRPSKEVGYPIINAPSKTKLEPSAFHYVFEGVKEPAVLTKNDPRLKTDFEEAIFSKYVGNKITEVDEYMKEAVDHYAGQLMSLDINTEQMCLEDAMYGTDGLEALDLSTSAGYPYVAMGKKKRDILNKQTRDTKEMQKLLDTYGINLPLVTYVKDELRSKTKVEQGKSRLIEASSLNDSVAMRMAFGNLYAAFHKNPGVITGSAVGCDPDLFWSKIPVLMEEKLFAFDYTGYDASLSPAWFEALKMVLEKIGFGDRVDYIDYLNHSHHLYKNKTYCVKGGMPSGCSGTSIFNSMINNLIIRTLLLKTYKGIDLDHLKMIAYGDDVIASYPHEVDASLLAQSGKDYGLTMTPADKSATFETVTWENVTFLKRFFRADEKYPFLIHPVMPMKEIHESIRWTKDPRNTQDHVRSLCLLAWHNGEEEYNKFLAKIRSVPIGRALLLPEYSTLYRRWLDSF
Mtb MenB inh: blocks the Mycobacterium tuberculosis MenB enzyme; P9WNP5; MenB enzyme assay, absorbance read-out; some hits fall short of the stated cut; inhibition, %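 (about 12 µg/mL by stock and volumes)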; 100,000 tested, 0.43% active;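 active = mean of two replicates above 30%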;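 note: 0% = no compound and 100% = wells with inactive enzyme; the first replicate is given; strong numbers were not always called active; inactives centre near -10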
Target sequence (P9WNP5 whole entry, looked up): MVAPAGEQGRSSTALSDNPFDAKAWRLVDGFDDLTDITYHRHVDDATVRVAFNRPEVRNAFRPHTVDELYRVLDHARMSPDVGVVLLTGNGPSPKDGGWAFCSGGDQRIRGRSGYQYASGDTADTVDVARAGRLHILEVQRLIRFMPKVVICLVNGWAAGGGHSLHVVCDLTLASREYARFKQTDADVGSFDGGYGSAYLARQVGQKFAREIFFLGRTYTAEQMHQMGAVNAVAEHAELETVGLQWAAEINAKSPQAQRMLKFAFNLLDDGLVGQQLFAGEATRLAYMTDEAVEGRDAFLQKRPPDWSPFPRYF
Polio RdRp inh intensity: also measured in Polio RdRp inh; calls as there; % elongation; measured here: total intensity read-out; formula for this scale not given here;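 total fluorescence in place of polarization; lower means less elongation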
* = called active by the depositor; . = no result given; & = joins results of further samples. Random draw from the library; 1.7% or so of the library scored in one or more.

Values in the order: Mtb MbtI inh, Polio RdRp inh, Polio RdRp inh intensity, Mtb MenB inh
- O=C1Nc2ccccc2S/C1=C\C(=O)N1CCN(c2ccc(F)cc2)CC1
→ 9, 100, 101, -24
- Cn1c(N)c(C(=S)NC(=O)c2cccs2)c(=O)n(C)c1=O
→ 14, 101, 103, 1
- COCCOC(=O)C1=C(C)OC(N)=C(C#N)C1c1cc2cc3c(cc2nc1Cl)OCO3 (configuration not stated)
→ 34, 101, 106, -25
- CCCCC/C=C\C/C=C\C/C=C\C=C\C(=O)CCCC(=O)O
→ -27, 102&101, 103&102, 1
- Cc1cccc(NC(=O)c2ccc(S(=O)(=O)N3CCCCC3)cc2)n1
→ -9, 102, 104, -17
- CCC(Sc1ccccc1C(=O)O)C(=O)O (configuration not stated)
→ -9, 99, 101, -13
- COc1ccccc1CN(C)C(C)C(=O)NC1CCCc2ccccc21 (configuration not stated)
→ -11, 103, 109, -16
- COc1ccc(NC(=O)c2sc(=S)n3c2[nH]c(=O)c2ccccc23)cc1
→ 94*, 102, 97, -48
- CNc1c(C(=O)c2ccc(OC)c(OC)c2)sc(N)c1C#N
→ ., 99, 104, -114
- Cc1ccc2nc3nc(NCc4cccnc4)c(C(N)=O)cc3c(=O)n2c1
→ 89, 101, 103, -132
- Cc1ccc(OCC(=O)NS(=O)(=O)c2ccccc2)cc1
→ -7, 99, 101, -25
- CC(C)OC(=O)CSc1nnc(CNc2ccc(F)cc2)n1C1CCCCC1
→ -1, 101, 102, -61
- CC1=NN(c2ccccc2)C(=O)C1C(=O)O (configuration not stated)
→ -3, 102, 102, -23
- Cc1ccc(S(=O)(=O)NCc2cccnc2)cc1
→ -2, 102, 103, -2
- COc1ccc(CCNC(=O)CSc2nc(=O)[nH]c3c2CCCC3)cc1OC
→ -6, 104, 110, -24
- Oc1cccc(-c2nc(-c3ccccc3)c3ccccn23)c1
→ 5, 89*, 85*, .
- CCOC(=O)c1sc(/N=C/c2cccc(Br)c2)cc1C
→ -7, 102, 109, .
- Cc1cccc(-c2n[nH]n3c2nc(=O)c2ccccc23)c1
→ -15, 103, 108, -21
- O=C(NCC(c1ccco1)N1CCCC1)c1ccc(-n2cccn2)cc1 (configuration not stated)
→ -8, 105, 114, -13
- CC(C)(CNS(=O)(=O)c1ccc(Cl)cc1)N1CCCCC1
→ -11, 103, 99, .
- O=C(NC1CCCc2ccccc21)C1CCCC1 (configuration not stated)
→ -10, 102, 108, 15
- Cc1ccc2oc(-c3ccccc3Cl)nc2c1
→ -45, 102, 102, -15
- NC(=O)Oc1ccc(I)cc1
→ ., 107, 114, -4
- CCCCP(=O)(c1ccccn1)c1ccccn1
→ -6, 97, 107, 8
- CCOC(=O)N1CCC(NC(=O)c2cc(C(=O)NCc3cccc(Cl)c3)ccc2CO)CC1
→ -3, 101, 101, 5
- S=C(NCCN1CCOCC1)c1ccc(Cl)cc1
→ 21, 100, 101, 2
- c1cc(C2CCNCC2)ccn1
→ -5, 103, 103, -9
- O=C(Nc1cccc(F)c1)C(Cc1ccccc1)n1cccc1 (configuration not stated)
→ 31, 102, 103, 7
- COC(=O)C(C(=O)OC)c1ccc(C#N)c(C#N)c1
→ ., 108, 111, -9
- CCOC(=O)Nc1ccc2c(c1)N(C(=O)CN(C)C)c1ccccc1S2
→ -13, 100, 104, -2
- CC(=O)Nc1ccc(OCC(O)CN2CCN(c3ccc(C)c(Cl)c3)CC2)cc1 (configuration not stated)
→ -2, 102, 102, -40
- Cc1c(Cl)cccc1N1C(=O)CC(Sc2nnnn2-c2ccccc2)C1=O (configuration not stated)
→ 98*, 104, 102, -34
- N#CC(C(N)=S)=C1CCCC1
→ 23, 104, 108, -69
- CCN1CCCC1CNC(=O)c1sc2nc3n(c(=O)c2c1C)CCCCC3 (configuration not stated)
→ 12, 101, 102, 1
- CCOC(=O)C[N+](C)(C)Cc1ccccc1
→ -6, 104, 111, 6
- CN(C)c1ccc(C2N(Cc3ccccc3)CCC3CCCCN32)cc1 (configuration not stated)
→ -6, 104, 111, -12
- CN(Cc1ccccc1)C(=O)COC(=O)c1cncc(Br)c1
→ -10, 101, 108, .
- O=C1C2C3CC4C5C3C1C5C1(OCCO1)C42 (configuration not stated)
→ -3, 102, 107, -45
- COc1ccccc1NC(=O)CSc1nc2c(oc3ccccc32)c(=O)n1Cc1ccc(F)cc1
→ 16, 102, 103, 9
- CC(=O)NC(Cc1c[nH]c2ccccc12)C(=O)N1CCN(c2cccc(C(F)(F)F)c2)CC1 (configuration not stated)
→ -17, 103, 104, -23
- CC(C)COC(=O)CNc1n[nH]c(=S)[nH]c1=O
→ 7, 97, 102, -32
- CCOC(=O)c1sc(N2C(=O)c3ccccc3C2=O)c(C#N)c1C
→ -6, 99, 102, -21
- O=C(O)c1ccccc1C(O)c1ccccc1 (configuration not stated)
→ 7, 102, 108, 14
- CN1C(=O)C2C=CC=CC2NC1=S (configuration not stated)
→ 44, 87*, 82*, -73
- O=C(Sc1nc2ccccc2o1)c1ccccc1
→ 95*, 100, 102, -50
- O=S(=O)(Nc1ccccc1NC1CCN(Cc2ccccc2)CC1)c1ccc(F)cc1
→ -9, 106, 109, -2
- COC(=O)c1ccc(-c2ccco2)n1Cc1nc(-c2ccccc2F)oc1C
→ 11, 102, 103, -20
- O=C1c2ccccc2C(=O)N1CCCN1CCN(Cc2c(F)cccc2Cl)CC1
→ -6, 101, 105, 2
- O=C(NNc1nc2c(F)cccc2s1)C1=COCCO1
→ 13, 102, 100, -2
- Clc1ccc(/C=N\N2CCN(c3ccccc3)CC2)cc1
→ -2, ., ., -26

(continued)
structure	Mtb MbtI inh	Polio RdRp inh	Polio RdRp inh intensity	Mtb MenB inh
Oc1ccc2ncccc2c1C(Nc1ccccn1)c1ccco1 (configuration not stated)	98	101	106	5
CNC(=O)NC(=O)c1cnccc1C(F)(F)F	-15	101	104	6
COc1cc(Cl)c(C)cc1NC(=O)CNC(=O)C1CCCCC1	-7	104	107	-21
Cc1ccc(C)c(S(=O)(=O)N(C)Cc2cccs2)c1	-11	99	103	-8
Cc1c(C(=O)O)oc2ccc(S(=O)(=O)N(CC(C)C)CC(C)C)cc12	-9	100	105	-7
Cc1cc(C)c(S(=O)(=O)NC(C)C2C3CC4CC(C3)CC2C4)c(C)c1 (configuration not stated)	-1	102	102	3
OC(COc1ccccc1)COc1ccccc1	-9	101	104	-73
CC(C)CC(=O)N=Nc1c(O)[nH]c2ccc(Br)cc12	7	100	102	2
COCc1cc(C)nc(SCC(=O)NC2CCCCC2C)c1C#N (configuration not stated)	-16	101	104	9
CCOC(=O)Cn1ccc2nc(SC)ncc2c1=O	0	99	107	10
CCOc1ccc(NC(=O)CN(C)Cc2cc(=O)n3c(-c4ccccc4)csc3n2)cc1OCC	11	114	123	-22
CCN(Cc1ccncc1)C(=O)CSc1ccc2ccccc2c1	0	104	106	.
N#Cc1ccc(N2CCOCC2)cc1C#N	5	104	102	-7
Oc1cccc(C=Nc2ccccc2N2CCOCC2)c1	-2	109	111	-33
CCC1(CC)N([O-])C(C)=C(c2ccccc2)[N+]1=O	0	104	105	-2
C#CC[N+]12CN3CN(CN(C3)C1)C2	0	104	103	-8
CN1C2C=C(N(C(=O)c3ccc(Cl)cc3)c3ccccc3)CC1CC2 (configuration not stated)	5	101	104	6
CC1CN(c2nnc(-c3cccs3)c3ccccc23)CC(C)O1 (configuration not stated)	-6	105	107	2
c1ccc(OCc2nn3c(-c4ccccc4)nnc3s2)cc1	86*	96	95	-45
CC(C)(C)N(Cc1ccccc1)C(=O)c1cccs1	.	104	95	-28
O=C(CSc1nnnn1Cc1ccccc1)Nc1ccccc1	-2	100	102	8
Cn1c(/C=C(\C#N)C(N)=S)ccc1-c1ccc(Br)cc1	-5	102	107	-46
Nc1scc[n+]1CC(=O)c1ccc(Cl)c(Cl)c1	-6	103	99	.
Cn1ccnc1SCC(=O)c1ccc(Cl)cc1	1	99	110	-9
CCOC(=O)c1cc(CC)sc1/N=C/C1C(=O)c2ccccc2C1=O	3	101	104	-20
C=CCn1c(SCC(=O)O)nnc1-c1sc2ccccc2c1Cl	-9	102	107	-20
CCCN1C(=O)/C(=C\C(=O)c2cccs2)c2ccccc21	28	100	103	-36
c1ccc(OCc2nc3ccccc3s2)cc1	2	97	102	-25
COc1ccc(OCCn2c(N)nc3ccccc32)cc1	-1	99	100	.
NC(=O)c1ccccc1NC(=O)COc1ccc2oc3c(c2c1)CCCC3	40	104	107	.
CC(Oc1ccc(/C=C2/SC(=O)N(C)C2=O)cc1)C(=O)O (configuration not stated)	-1	102	102	-18
O=C(c1ccccc1)c1ccccc1C(=O)N1CCN(C2CCS(=O)(=O)C2)CC1 (configuration not stated)	-3	102	105	-18
Cc1ccccc1NC(=O)NC1(C(=O)N2CCC(C(N)=O)CC2)CCCCC1	-3	105	100	-20
NC(=O)C1CCCCN1C(=S)Nc1cccc(C(F)(F)F)c1 (configuration not stated)	55	99	97	-8
Cc1cn(C/C=C\c2ccccc2)c(=O)n(C/C=C/c2ccccc2)c1=O	5	100	97	-20
COc1cc(C(=O)N2CCCN3C(=O)c4ccccc4C23)cc(OC)c1OC (configuration not stated)	-6	103	112	-4
CC(=O)Nc1ccc(S(=O)(=O)N(C)CC(=O)NC2CCCc3ccccc32)cc1 (configuration not stated)	-16	101	112	-5
O=C(Cn1cc(C(=O)c2cccs2)c2ccccc21)Nc1ccccc1C(F)(F)F	2	103	104	-1
O=C(NCCCn1ccnc1)C12CC3CC(CC(C3)C1)C2	-11	102	101	-11
CCC(CO)NC1=CC(=O)CCC1 (configuration not stated)	15	100	106	.
COc1ccc(C(C)NCc2ccco2)cc1 (configuration not stated)	-3	103	106	-40
Cc1cccc(CC2(Cc3cccc(C)c3)C(=O)OC(C)(C)OC2=O)c1	.	103	108	-1
O=C(CN1CCCCC1)OCCCC1CCCCC1	-7	101	102	-11
O=C(NCC(c1cccnc1)N1CCOCC1)c1ccco1 (configuration not stated)	-11	104	108	-2
Cc1cc(C)n(C(=S)CSc2nc(-c3ccc(F)cc3)cc(-c3ccco3)c2C#N)n1	36	100	93	-21
CN(C)c1ccc(C(=O)Nc2cc(C(F)(F)F)ccc2-n2cncn2)cc1	-23	100	104	.
CCN(CC)S(=O)(=O)c1ccc(C(=O)NCC(=O)OC)cc1	4	101	96	-8
COC(=O)c1sccc1N1C(=O)C=C(C)C1=O	21	112	111	-20
Cn1c(C(=O)NCCN2CCN(c3ccccc3F)CC2)cc2c(=O)n(C)c3ccccc3c21	4	101	102	-7
Cc1nnc(SCc2ccccc2C(=O)O)n1C	-7	102	104	11
C/S(=N\S(=O)(=O)c1ccccc1)c1ncc(Cl)cc1C(F)(F)F (configuration not stated)	6	103	95	-9
NC(=O)c1c(NC(=O)COC(=O)c2ccc(Br)o2)sc2c1CCC2	-13	107	114	-4
Cc1scc(-c2ccccc2)[n+]1CCO	54*	104	103	-3
OC(C#CCN1CCCC1)(c1ccccc1)C1CCCC1 (configuration not stated)	-14	101	103	-31
Cc1ccc(SCc2cc(=O)n3nc(-c4ccco4)sc3n2)cc1	12	99	103	-9
Cc1ccc(-c2csc(Nc3ccccc3)[n+]2NC(=O)c2ccncc2)cc1	-4	106	103	.
FC(F)(F)c1cc(-c2noc(-c3ccc4c(c3)CCO4)n2)cc(C(F)(F)F)c1	-5	99	98	15
COC(=O)c1sc(-c2ccc(F)cc2)cc1NC(=O)C(F)(F)F	-3	103	102	-16
O=C(NC1(O)C(=O)c2ccccc2C1=O)c1cnn(-c2ccccc2)c1C(F)(F)F	-11	48*	57*	-2
COc1ccc(CNc2ccc3cn[nH]c3c2)c(OC)c1C	-97	96	98	-1

7 successive entries from above, for reference:
structure	Mtb MbtI inh	Polio RdRp inh	Polio RdRp inh intensity	Mtb MenB inh
OC(C#CCN1CCCC1)(c1ccccc1)C1CCCC1 (configuration not stated)	-14	101	103	-31
Cc1ccc(SCc2cc(=O)n3nc(-c4ccco4)sc3n2)cc1	12	99	103	-9
Cc1ccc(-c2csc(Nc3ccccc3)[n+]2NC(=O)c2ccncc2)cc1	-4	106	103	.
FC(F)(F)c1cc(-c2noc(-c3ccc4c(c3)CCO4)n2)cc(C(F)(F)F)c1	-5	99	98	15
COC(=O)c1sc(-c2ccc(F)cc2)cc1NC(=O)C(F)(F)F	-3	103	102	-16
O=C(NC1(O)C(=O)c2ccccc2C1=O)c1cnn(-c2ccccc2)c1C(F)(F)F	-11	48*	57*	-2
COc1ccc(CNc2ccc3cn[nH]c3c2)c(OC)c1C	-97	96	98	-1

Remaining list, next part
structure	Mtb MbtI inh	Polio RdRp inh	Polio RdRp inh intensity	Mtb MenB inh
COc1ccc(-c2csc(Cc3nnc(N4CCOCC4)n3-c3ccccc3)n2)cc1	2	103	107	-21
CSc1nc(C)c(CCC(=O)O)c(C)n1	-3	104	105	11
CC(C(=O)Oc1ccc2c(c1)OCO2)N1C(=O)c2ccccc2C1=O (configuration not stated)	1	107	107	-17
Cc1cc(C(=O)Oc2ccc(C#N)cc2)c(C)s1	-11	102	106	0
O=C(NCCc1csc2nc(-c3ccccc3)nn12)c1cccs1	0	105	98	7
CN(C)/C=N/N1CC(O)=C(c2nc3ccccc3s2)C1=N	2	118	123	6
